Assay outcomes as filed in PubChem.
USP2a inh – inhibitors of human ubiquitin-specific protease USP2a; USP2 core, Ub-CHOP2 coupled fluorogenic reporter, 485/531; O75604; actives 0.01% (n = 330,000); Potency, µM (titrated, usually from 38.3 µM), without a hit: top-dose activity change, negative = inhibition, usual class: inhibitors; AID 463254;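 note: potency is the fitted concentration of half-maximal effect; plate controls were DMSO wells for no effect and full inhibition by NEM control for full effect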
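USP2 core (10nM final) preincubated 30min RT with compound in 20mM Tris-HCl pH 8.0, 2mM CaCl2, 2mM beta-mercaptoethanol, 0.05% CHAPS; 25nM Ub-CHOP2 plus 25nM reporter substrate added, fluorescence (Ex485/Em531) read after 60min.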
MBNL1-CUG inh – MBNL1-poly(CUG) RNA binding inhibition | Q9NR56 | TR-FRET MBNL1-His/biotin-(CUG)12 binding, 665/545 ratio | Potency, µM (highest dose often 57.5 µM), without a hit: top-dose activity change, negative = inhibition, most hits filed as inhibitors | actives 0.036% (n = 280,000); active = well fitted inhibition curve with a large enough effect in the signal ratio, with a control signal flat, not every such curve was filed as active; inconclusive = small, poorly fitted or top-dose-only effect, or effect the other way, or a change in a side signal; inactive = no such curve, though single readings can be large or run the other way; the % refers to the signal ratio; note: potency is the fitted concentration of half-maximal effect; % is set by controls: 0 for no effect and ±100 for the full control effect
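Ratiometric TR-FRET (665 over 545 nm, excitation 340 nm) tracks disruption of MBNL1-His/biotin-(CUG)12 complex after 60 min at room temperature, with compounds at 92 nM to 58 uM final.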
Eya2 inh – blocks the phosphatase activity of human Eya2; O00167; recombinant Eya2, OMFP fluorescence dephosphorylation (OMFP is methylfluorescein phosphate); Potency, µM (top dose mostly 76.9 µM), inactives show at the highest dose activity, negative = inhibition, usual class: inhibitors; actives 0.006% (n = 330,000); AID 488837; note: potency is the fitted concentration of half-maximal effect; % is set by controls: 0 for no effect and ±100 for the full control effect
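Eya2 protein (added as 0.2 uM solution) was preincubated with compound for 10 min at ambient temperature in 50 mM HEPES pH 7.5, 50 mM NaCl, 5 uM MgCl2, 0.05% BSA, 1 mM DTT. OMFP (added at 50 uM) then reacted 10 min; fluorescence read at 485/525 nm.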
TSHR antag – antagonists of human thyroid stimulating hormone receptor. P16473. TSHR-expressing cells, TSH-stimulated cAMP HTRF, 2 h; stronger effect = lower value. activity change, negative = inhibition, % at 11.5 µM. actives 0.2% (n = 330,000);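 active = activity change below a set negative limit, meaning inhibition stronger than a set level, cut at about -70% in these data; inconclusive = activity change between two set negative limits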; note: % is set by controls: 0 for no effect and ±100 for the full control effect
Target sequence (P16473 whole entry, looked up): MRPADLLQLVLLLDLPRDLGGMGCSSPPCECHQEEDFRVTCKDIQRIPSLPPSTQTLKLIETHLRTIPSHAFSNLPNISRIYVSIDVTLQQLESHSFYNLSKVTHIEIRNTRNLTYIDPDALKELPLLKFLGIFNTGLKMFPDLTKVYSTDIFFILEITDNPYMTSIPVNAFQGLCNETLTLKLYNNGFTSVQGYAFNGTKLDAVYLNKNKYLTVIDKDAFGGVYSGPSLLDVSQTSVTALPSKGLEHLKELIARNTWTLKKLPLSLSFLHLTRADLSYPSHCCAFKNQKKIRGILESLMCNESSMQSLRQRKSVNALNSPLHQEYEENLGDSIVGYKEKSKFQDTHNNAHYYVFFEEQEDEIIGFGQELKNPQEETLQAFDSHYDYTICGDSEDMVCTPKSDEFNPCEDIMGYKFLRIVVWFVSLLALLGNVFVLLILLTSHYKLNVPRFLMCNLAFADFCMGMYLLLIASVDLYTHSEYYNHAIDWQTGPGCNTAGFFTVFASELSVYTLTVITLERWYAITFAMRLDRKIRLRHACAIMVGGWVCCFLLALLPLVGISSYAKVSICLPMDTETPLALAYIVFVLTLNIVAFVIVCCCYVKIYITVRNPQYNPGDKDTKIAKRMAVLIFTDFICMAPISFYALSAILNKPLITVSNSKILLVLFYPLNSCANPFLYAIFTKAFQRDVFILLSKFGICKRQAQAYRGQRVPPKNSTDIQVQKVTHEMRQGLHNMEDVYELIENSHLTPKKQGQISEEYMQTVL
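Cell-based HTRF cAMP assay; TSHR cells + compound, TSH EC80 (4nM final), 2 h, 37 deg C. Lysis with anti-cAMP cryptate and cAMP-d2, 30 min RT, read 665/620 nm.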
GALK inh – galactokinase (human) inhibition; P51570; Purified GALK, Kinase-Glo residual ATP luminescence; Potency, µM (titrated, usually from 57.5 µM), without a hit: at the highest dose activity change, negative = inhibition, actives largely listed as inhibitors; actives 0.007% (n = 270,000); AID 1868; note: potency is the fitted concentration of half-maximal effect; % is set by controls: 0 for no effect and ±100 for the full control effect
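ATP-depletion format; final 35 uM ATP, 100 uM D-galactose, 5 nM enzyme; pH 8.0 HEPES/Mg2+ buffer; 60 min RT; luminescence read 10 min after detection reagent.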
hERG WT inh – blocks the wildtype human KCNH2 potassium channel; U2OS, BacMam KCNH2, thallium flux FluxOr; stronger effect = lower value; Q12809; actives 0.37% (n = 340,000); AID 720551; activity change, % at 1.84 µM;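 active = maximum activity change below -70%; inconclusive = maximum activity change between -70% and -50%; inactive = maximum activity change above -50%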; note: % is set by controls: 0 for no effect and ±100 for the full control effect
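U2OS cells transduced with wild-type KCNH2 virus are loaded with FluxOr dye for 45 min, and thallium flux is measured in kinetic reads before and after stimulation buffer. Rate constants are normalized to DMSO controls.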
Menin MLL FP TR – inhibitors of human menin-MLL interaction, mutant MLL peptide | O00255 | Menin + Texas Red MLL mutant peptide, fluorescence polarization | Potency, µM (doses to about 61.6 µM), for the others: at the top dose FP activity change, negative = inhibition, hits mostly inhibitors | actives 0.23% (n = 270,000) | AID 1768; active = well fitted inhibition curve with a large enough effect in the polarisation, with a control signal flat, not every such curve was filed as active; inconclusive = small, poorly fitted or top-dose-only effect, or effect the other way, or a change in a side signal; inactive = no such curve, though single readings can be large or run the other way; the % refers to the polarisation; note: potency is the fitted concentration of half-maximal effect; % of control where 0% means no effect; many of its hits are not listed in these tables
Mito fusion act – mitochondrial division inhibition or fusion activation. S. cerevisiae fusion-defective mutant growth rescue, CellTiterGlo 48 h. AID 485298. Potency, µM (highest dose often 46.1 µM), for the others: at the highest dose growth rescue (activation), hits mostly activators. actives 0.23% (n = 320,000);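 note: potency is the fitted concentration of half-maximal effect; % of control where 0% means no effect; nearly all actives have a fitted effect of over 45% in size; temperature-sensitive fusion mutants such as fzo1-1 at 37 °C on non-fermentable ethanol glycerol medium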
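Temperature-sensitive fusion-defective S. cerevisiae (e.g. fzo1-1, mgm1-5) were grown with compound in YPEG medium (3% ethanol, 3% glycerol) for 48 hours at 37C. Growth rescue was measured as viability by CellTiterGlo luminescence after 10 minutes at ambient.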
BCR signal inh – inhibitors of chronic active B-cell receptor signaling | actives 0.05% (n = 340,000) | AID 493014 | Potency, µM (titrated, usually from 46.1 µM), for inactives: at the top dose ratio change, negative = lower green/red ratio, most hits filed as inhibitors | ABC-DLBCL IkBa-CBG/CBR reporter, luminescence ratio, 4 h; active = well fitted inhibition curve with a large enough effect in the signal ratio, with a control signal flat, not every such curve was filed as active; inconclusive = small, poorly fitted or top-dose-only effect, or effect the other way, or a change in a side signal; the % refers to the signal ratio;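 note: potency is the fitted concentration of half-maximal effect; plate controls were basal doxycycline-induced cells for no effect and cells given 10 µM MG132 for full effect; MG132 reads +100%, hits lower the ratio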
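TMD8 ABC-DLBCL cells carrying doxycycline-inducible green luciferase fused to IkappaBalpha plus unfused red luciferase were exposed to compounds (up to 46 uM) for 4 hrs at 37C. Activity came from the overlap-corrected green/red luminescence ratio.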
An asterisk follows results filed as active; [ ] = dose if it differs, or a comment. Unless noted, calls come from the whole dose curve; as a rule, active = well fitted curve in the direction sought with a large enough effect; inconclusive = small, poorly fitted or top-dose-only effect, or another doubt; inactive = no such curve, though single readings can be large; an effect the other way counts as inactive or inconclusive. Not all compounds are listed; the hit share may differ from the screen's.

O=C(NCc1ccc(Cl)cc1)c1noc2c1CCCCC2 was read as USP2a inh -1%, MBNL1-CUG inh 7%, Eya2 inh -10%, TSHR antag -7, GALK inh -1%, hERG WT inh -17, Menin MLL FP TR -23%, Mito fusion act 3% and BCR signal inh inconclusive.
For COc1ccc(-c2nnc(NC(=O)c3ccc(S(=O)(=O)N4CCCc5ccccc54)cc3)o2)cc1 the results were USP2a inh 1%, MBNL1-CUG inh 8%, Eya2 inh -12%, TSHR antag inconclusive, GALK inh -1%, hERG WT inh -17, Menin MLL FP TR inconclusive, Mito fusion act -2% and BCR signal inh 0%.
Screening Cc1ccc(CN2CC(C(=O)Nc3ccc4c(C)cc(=O)oc4c3)CC2=O)cc1 (centres undefined) returned USP2a inh -6%, MBNL1-CUG inh -1%, Eya2 inh -10%[15.4 µM], TSHR antag -3, GALK inh 2%, hERG WT inh 7, Menin MLL FP TR -7%, Mito fusion act 3% and BCR signal inh -3%.
Screening CCN(CC)/C(=N/O)NC(=O)NS(=O)(=O)c1ccc(C)cc1 returned MBNL1-CUG inh -13%, GALK inh -2%, hERG WT inh -8, Menin MLL FP TR 14% and Mito fusion act -2%.
N#Cc1cc2c(nc1SCC(=O)N1CCCCC1)CCCC2 was read as USP2a inh 3%, MBNL1-CUG inh 6%, Eya2 inh -1%, TSHR antag 7, GALK inh -3%, hERG WT inh -2, Menin MLL FP TR -2%, Mito fusion act 2% and BCR signal inh 1%.
For CCCn1nnnc1SCC(=O)N(C(C)C)C(C)C the results were USP2a inh 0%, MBNL1-CUG inh -7%, Eya2 inh 2%, TSHR antag 5, GALK inh 0%, hERG WT inh 3, Menin MLL FP TR -21%, Mito fusion act 2% and BCR signal inh 11%.
For Cc1ccc2[nH]c3nc(SCCN4CCOCC4)nnc3c2c1 the results were USP2a inh 3%, MBNL1-CUG inh inconclusive, Eya2 inh 13%, TSHR antag -4, GALK inh -2%, hERG WT inh 1, Menin MLL FP TR 7%, Mito fusion act 1% and BCR signal inh 11%.
For Cc1cccc(-c2nnc(SCC#N)n2Cc2ccccc2)c1 the results were USP2a inh 1%, MBNL1-CUG inh -17%, Eya2 inh -3%, TSHR antag -4, GALK inh 3%, hERG WT inh 4, Menin MLL FP TR -5%[11.7 µM], Mito fusion act 1% and BCR signal inh 3%.
For S=c1nc(-c2ccccc2)n(CCCN2CCOCC2)c2c1CCCC2 the results were USP2a inh 0%, MBNL1-CUG inh 8%, Eya2 inh -6%, TSHR antag 2, GALK inh 9%, hERG WT inh 2, Menin MLL FP TR -6%, Mito fusion act -2% and BCR signal inh 5%.
For CC(CN1CCNCC1)(NS(=O)(=O)c1ccccc1)c1ccccc1 (centres undefined) the results were USP2a inh -2%, MBNL1-CUG inh 2%, Eya2 inh -4%, TSHR antag 2, GALK inh -2%, hERG WT inh -18, Menin MLL FP TR -1%, Mito fusion act -2% and BCR signal inh inconclusive.
`CC1CCCN(Cc2nc3c(c(=O)n(C)c(=O)n3C)n2CC(N)=O)C1` (centres undefined) gave USP2a inh 4%, MBNL1-CUG inh -8%, Eya2 inh 12%[15.4 µM], TSHR antag -15, GALK inh 1%, hERG WT inh 5, Menin MLL FP TR 0%, Mito fusion act -3% and BCR signal inh 7%.
For COC(=O)C(NC(C)=O)(Nc1ccc(Br)cc1)C(=O)OC the results were USP2a inh 0%, MBNL1-CUG inh -1%, Eya2 inh -1%, TSHR antag 1, GALK inh 6%, hERG WT inh -21, Menin MLL FP TR 3%, Mito fusion act -1% and BCR signal inh inconclusive.
`O=C(Nc1ccc2c(c1)oc1ccccc12)C1CC1` gave USP2a inh 2%, MBNL1-CUG inh 0%, Eya2 inh -9%, TSHR antag -1, GALK inh -2%, hERG WT inh 5, Menin MLL FP TR inconclusive, Mito fusion act 5% and BCR signal inh 1%.
Screening CC1CCCCC1NC(=O)c1ccc(N2CCCC2=O)cc1 (centres undefined) returned USP2a inh 1%, MBNL1-CUG inh 0%, Eya2 inh 7%, TSHR antag 3, GALK inh 0%, hERG WT inh 56, Menin MLL FP TR -1%, Mito fusion act 3% and BCR signal inh inconclusive.
`COc1ccc(C(=O)CSc2nnc(CNC(=O)c3ccc(OC)c(OC)c3)n2C)cc1` gave USP2a inh -1%, MBNL1-CUG inh -2%, Eya2 inh -5%, TSHR antag 5, GALK inh 0%, hERG WT inh -9, Menin MLL FP TR -9%, Mito fusion act -4% and BCR signal inh 0%.
Screening CCC1=C/C(=C/N(C)c2ccccc2)C(=O)S1 returned USP2a inh -1%, MBNL1-CUG inh 12%, Eya2 inh 3%, TSHR antag 10, GALK inh 2%, hERG WT inh 3, Menin MLL FP TR 49%[activator], Mito fusion act 0% and BCR signal inh inconclusive.
`N#CC1=C2SCN(Cc3ccccc3)CN2C(=O)CC1c1ccccc1F` (centres undefined) gave USP2a inh 2%, MBNL1-CUG inh 3%, Eya2 inh -4%, TSHR antag 9, GALK inh 1%, hERG WT inh -6, Menin MLL FP TR -2%[11.7 µM], Mito fusion act 6% and BCR signal inh -2%.
Cc1ccc2occ(C(=O)c3ccco3)c(=O)c2c1 was read as USP2a inh -3%, MBNL1-CUG inh -2%, Eya2 inh 9%, TSHR antag 10, GALK inh 1%, hERG WT inh -36, Menin MLL FP TR -12%, Mito fusion act -4% and BCR signal inh inconclusive.
Screening Cc1ccc(N2C(=O)[C@@H]3[C@H](C2=O)C2CCCN2[C@@H]3C(=O)c2ccccc2)cc1 (some centres undefined) returned USP2a inh 5%, MBNL1-CUG inh 16%, Eya2 inh -6%, TSHR antag 25, GALK inh -2%, hERG WT inh -9, Menin MLL FP TR 1%, Mito fusion act -28% and BCR signal inh inconclusive.
CCOC(=O)c1c(C)c(C(=O)Nc2cc(OC)ccc2OC)c(C)n1CC was read as USP2a inh -1%, MBNL1-CUG inh 2%, Eya2 inh 9%, TSHR antag -1, GALK inh 0%, hERG WT inh 9, Menin MLL FP TR -13%, Mito fusion act 4% and BCR signal inh 1%.
For Cn1c(=O)[nH]c(=O)c2c1nc(N1CCCC1)n2CC(O)COc1ccccc1 (centres undefined) the results were USP2a inh -1%, MBNL1-CUG inh -3%, Eya2 inh -33%, TSHR antag 20, GALK inh 1%, hERG WT inh 0, Menin MLL FP TR -4%, Mito fusion act -1% and BCR signal inh 23%.
`CCCCN(CCCC)c1nc2ccccc2nc1C(C#N)C(=O)NCCCOC` (centres undefined) gave USP2a inh -1%, MBNL1-CUG inh 15%, Eya2 inh 8%, TSHR antag 16, GALK inh 4%, hERG WT inh 3, Menin MLL FP TR -13%, Mito fusion act 7% and BCR signal inh 9%.
COc1cccc2cc(C(=O)NC(C)C3CCCO3)c(=O)oc12 (centres undefined) was read as USP2a inh 0%, MBNL1-CUG inh inconclusive, Eya2 inh 7%, TSHR antag 3, GALK inh 0%, hERG WT inh -3, Menin MLL FP TR -15%, Mito fusion act 1% and BCR signal inh inconclusive.
For O=C(c1cc2n(n1)C(C(F)(F)F)CC(c1ccc(F)cc1)N2)N1CCCC1 (centres undefined) the results were USP2a inh -1%, MBNL1-CUG inh -6%, Eya2 inh -9%, TSHR antag -9, GALK inh -2%, hERG WT inh 4, Mito fusion act 6% and BCR signal inh -2%.
Screening Cc1cc(N(C)Cc2ccccc2)nc(-c2ccccc2)n1 returned USP2a inh -3%, MBNL1-CUG inh -1%, Eya2 inh -23%, TSHR antag -1, GALK inh 0%, hERG WT inh 5, Menin MLL FP TR 14%, Mito fusion act 5% and BCR signal inh 13%.
For CC(C)C(=O)N1CCN(c2ccccc2N)CC1 the results were USP2a inh -1%, MBNL1-CUG inh 6%, Eya2 inh -7%, TSHR antag -5, GALK inh 2%, hERG WT inh 0, Menin MLL FP TR -1%[11.7 µM], Mito fusion act 0% and BCR signal inh inconclusive.

Structural class: the compounds so far with a furan ring, fused or not (2)
`O=C(Nc1ccc2c(c1)oc1ccccc12)C1CC1` gave USP2a inh 2%, MBNL1-CUG inh 0%, Eya2 inh -9%, TSHR antag -1, GALK inh -2%, hERG WT inh 5, Menin MLL FP TR inconclusive, Mito fusion act 5% and BCR signal inh 1%.
Cc1ccc2occ(C(=O)c3ccco3)c(=O)c2c1 was read as USP2a inh -3%, MBNL1-CUG inh -2%, Eya2 inh 9%, TSHR antag 10, GALK inh 1%, hERG WT inh -36, Menin MLL FP TR -12%, Mito fusion act -4% and BCR signal inh inconclusive.
